AID504770: E. coli YBA685 growth inhibition, screen for V. cholerae RctB inhibitors; actives 0.27% (n = 130,000); AID 504770; E. coli YBA685 rctB-dependent plasmid, OD600 growth, 3 h; active compounds read low; z-score (concentration not given with the values);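 active = z-score under -2 on both plates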;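 note: wells of about 30 µL received 100 nL stock; score is relative to mean and SD of the test wells; the first replicate is given; strong numbers were not always called active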
CapD inh: CapD enzyme inhibition | purified CapD enzyme, fluorescence intensity read-out; active compounds read low; some hits fall short of the stated cut | z-score (no concentration beside the values) | actives 0.23% (n = 140,000) | AID 492967;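 active = z-score under -4 in either of two replicates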;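 note: stock transfer was 100 nL into about 40 µL; score is relative to mean and spread of the plate; one replicate is shown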
An asterisk follows results filed as active; . = not tested or not shown.

SMILES	AID504770	CapD inh
CCC(C)c1ccc(OCCCN2CCN(C)CC2)cc1 (centres undefined)	-0.55	74.7
CC1=C(C(=O)Nc2cccc(C)n2)C(c2cccc(Br)c2)C2=C(CC(C)(C)CC2=O)N1 (centres undefined)	.	4.81
O=C(OCc1ccc(-c2cc(C(F)(F)F)cc(C(F)(F)F)c2)o1)c1cccs1	1.85	1.67
CC1=C(C(=O)OCCOc2ccccc2)C(c2ccc(Cl)c([N+](=O)[O-])c2)C2=C(CC(C)(C)CC2=O)N1 (centres undefined)	.	-0.84
O=c1n(Cc2ccccc2)nc2n1-c1ccccc1SC2	-0.7	-0.61
CC1CCCC(n2c(=S)[nH]c3ccccc3c2=O)C1C (centres undefined)	-0.65	0.72
CNc1nc(SCc2ccccc2)nc(N2CCOCC2)n1	-0.3	.
Cc1c(-c2ccccc2)oc2c(C(=O)OCCN3CCCCC3)cccc2c1=O	.	1.22
Cc1ccc(CN(Cc2ccccc2)C(=S)NCC(=O)N2CCC3(CC2)OCCO3)o1	1	0.425
COc1cc(OC)cc(C(=O)NC(C)(C)CO)c1	2.25	-0.6
Cc1cc(C)c(C#N)c(SC2CCCCC2=O)n1 (centres undefined)	-0.05	0.355
COc1ccccc1Nc1nc2ccccc2[nH]1	-1.75	-0.23
COc1ccc(C2CC(=O)C3=C(C2)NC(C)=C(C(=O)OC2CCCC2)C3c2cc(OC)ccc2OC)cc1 (centres undefined)	.	14.3
COC(OC)c1ccc(C#N)c(SCc2ccc(C)cc2)n1	-1.15	9.41
CN(C)c1ccc(/C=C/CN2CCSCC2)cc1	0.7	22.1
c1ccc2c(c1)c(NCc1ccc3c(c1)OCO3)nn1cnnc21	-0.7	0.265
CC(C)OC(=O)CSc1nc2c(c(-c3ccc(O)cc3)c1C#N)CCCC2	.	-0.145
N#C/C(=C\C=C\c1ccccc1)c1nc2ccccc2c(=O)[nH]1	0.45	5.17
CC(CC(=O)NCc1ccccc1)S(=O)(=O)c1ccc2c(c1)NC(=O)CS2 (centres undefined)	0.7	-1.2
Cc1ccc(S(=O)(=O)NC(=O)N2CCC(c3nc(-c4cccc(C(F)(F)F)c4)no3)CC2)cc1	.	-0.04
Cc1ccc(-n2nc(C)cc2NC(=O)c2ccco2)cc1	-0.15	-1
CCOC(=O)CN1C(=O)C(O)(CC(=O)c2ccco2)c2ccccc21 (centres undefined)	.	0.1
Fc1ccc(/C=N/n2cnnc2)cc1	1.9	-0.61
O=C(Nc1ccc(-n2cc(-c3cnccn3)cn2)cc1)Nc1ccccc1C(F)(F)F	.	0.4

Random excerpt: 4 entries already listed.
SMILES	AID504770	CapD inh
COc1ccc(C2CC(=O)C3=C(C2)NC(C)=C(C(=O)OC2CCCC2)C3c2cc(OC)ccc2OC)cc1 (centres undefined)	.	14.3
Cc1ccc(S(=O)(=O)NC(=O)N2CCC(c3nc(-c4cccc(C(F)(F)F)c4)no3)CC2)cc1	.	-0.04
Fc1ccc(/C=N/n2cnnc2)cc1	1.9	-0.61
CN(C)c1ccc(/C=C/CN2CCSCC2)cc1	0.7	22.1

The list continues.
SMILES	AID504770	CapD inh
Cc1cc2nc(-c3cc(NC(=O)c4sc5ccccc5c4Cl)ccc3O)oc2cc1C	.	0.115
O=C1C(=O)N(Cc2cccc(C(F)(F)F)c2)C(=O)N1Cc1ccc(Cl)cc1	.	-0.695
Cc1cccc(NC(=O)CSc2nc3c(cc2C#N)CCCCC3)c1	.	-0.42
CCn1c(C)nnc1SCC(=O)Nc1cccc(Cl)c1	0.05	.
Oc1ccc(-c2n[nH]c(=S)n2CC2CCCO2)cc1 (centres undefined)	-0.1	.
Cc1cc(Br)ccc1N1C(=O)C2C3c4ccccc4C(C=O)(c4ccccc43)C2C1=O (centres undefined)	.	-0.645
CC(C)=CCCC1(C)C=Cc2c(O)c3c(c(CC=C(C)C)c2O1)OC12C(=CC4CC1C(C)(C)OC2(C/C=C(/C)C(=O)O)C4=O)C3=O (centres undefined)	-0.05	-0.74
O=C(NC12CC3CC(CC(C3)C1)C2)C1CCC1	-0.85	-1.05
CCC(=O)Oc1ccc(NC(=O)CSCc2ccccc2)cc1	-1.3	-0.105
COc1ccc(O)c(C(=O)c2cnc(Nc3nc(C)c4ccccc4n3)nc2)c1	-0.2	.
CCc1cccc(C(C)C)c1NC(=O)c1cccs1	0.2	0.645
Clc1ccc(-n2ncc3c2ncn2nc(-c4ccccc4)nc32)cc1	0.75	0.815
O=C1CC(N2CCN(c3ccccc3)CC2)C=C1Nc1ccc(Cl)cc1 (centres undefined)	-0.1	-0.57
O=S(=O)(NCCSCc1ccco1)c1ccc(Cl)cc1	.	-0.52
CN1C/C(=C\c2ccco2)C(=O)/C(=C/c2ccco2)C1	.	-3.21
COc1ccc(-c2ccn(-c3cccc(F)n3)n2)cc1	-0.6	5.21
COc1cc(OC)cc(-c2nc(-c3ccc(Br)cc3)c(-c3ccc(Br)cc3)[nH]2)c1	.	31.2
Clc1ccc(NC2=NCCS2)c(Cl)c1	.	0.16
O=C(CCCl)NCC1(c2ccccc2)CCCC1	.	-0.135
CCn1c2ccccc2c2cc(/C=N/NC(=O)c3ccc(OC(F)(F)F)cc3)ccc21	.	68.7
CCCCc1ccc(NC(=O)CN2C(=O)CSC(C)C2=O)cc1 (centres undefined)	-0.6	-0.52
CC(C)C(C(=O)NCc1ccco1)c1ccc(Cl)cc1 (centres undefined)	0.1	.
N#Cc1ccc(-c2cccc(C(F)(F)F)c2)n(Cc2ccc([N+](=O)[O-])cc2)c1=O	.	0.555
CCN1CCN(C(c2cccs2)C(C)NC(=O)Cc2cccs2)CC1 (centres undefined)	0.1	0.175
COc1cccc(NC(=O)C(C)N2CCc3ccccc32)c1 (centres undefined)	-0.6	.
Cc1cccc(C)c1N1C(=O)CN(C(C)C)C1=S	1.55	.
CCOC(=O)c1c(NC(=O)c2cc3n(n2)C(C(F)(F)F)CC(c2ccco2)N3)sc2c1CCCCC2 (centres undefined)	.	0.655
CN(C(=O)CSc1nnc(Nc2ccccc2F)s1)C1CCCCC1	1.85	.
CCCCCCSc1nc(O)c(CC)c(=O)n1-c1ccccc1	-0.8	-0.355
N#Cc1cccc(CSC(=N)N)c1	0.4	0.195
CN(C)S(=O)(=O)c1cccc(C(=O)OCC(=O)c2ccc[nH]2)c1	-0.25	.
O=C(Cn1cnc2ccc(Cl)cc2c1=O)N(c1ccccc1)C1CCS(=O)(=O)C1 (centres undefined)	0	.
Cc1nc2ccccc2nc1SC(C(=O)O)c1ccccc1 (centres undefined)	-1.3	-0.39
CCOC(=O)c1ccc(-c2c(C)oc3cc(OC)c(CC)cc3c2=O)o1	-0.05	.
CCN(CC)C(=O)c1csc(Nc2ccc(OC)cc2)n1	-0.3	-0.19
O=C(O)c1ccc(Nc2ncnc3c2cnn3Cc2ccccc2)cc1	1.05	-1.82
COC(=O)c1cc(CC#N)c(C)o1	-1.2	-0.11
CCOC(=O)c1c(CN2CCCCC2C)n(-c2ccccc2)c2cc(Br)c(O)cc12 (centres undefined)	.	0.125
CCCCN1C(=O)c2ccc(C(=O)OCc3csc(C)n3)cc2C1=O	-1.15	.
CS(=O)(=O)CC(=O)Nc1ccc2nc3n(c(=O)c2c1)CCCCC3	0.4	-0.265
CC(Oc1ccccc1-c1ccccc1)c1n[nH]c(=S)n1-c1ccccc1 (centres undefined)	-1.05	-0.115
CS(=O)(=O)c1ccc(C(=O)O)s1	.	-0.425
Cn1c(=NC(=O)C2COc3ccccc3O2)sc2ccccc21 (centres undefined)	0.4	.
COc1ccc(CCNC(=O)c2ccc3c(=O)n(-c4ccc(F)cc4)c(=S)[nH]c3c2)cc1OC	.	0.73
CCN(CC)C(=O)Cn1cnc2sc(C(=O)N3CCN(c4ccccn4)CC3)c(C)c2c1=O	.	0.285
COc1ccc(CCNC(N)=S)cc1OC	1.65	.
NCc1ccc(-c2ccc(Cl)cc2)o1	0.6	.
Cc1cc(C)n(-c2ccc(N3CC(C)OC(C)C3)nn2)n1 (centres undefined)	2.75	0.4

Molecules from the list above that contain bromine, in the order listed:
SMILES	AID504770	CapD inh
CC1=C(C(=O)Nc2cccc(C)n2)C(c2cccc(Br)c2)C2=C(CC(C)(C)CC2=O)N1 (centres undefined)	.	4.81
Cc1cc(Br)ccc1N1C(=O)C2C3c4ccccc4C(C=O)(c4ccccc43)C2C1=O (centres undefined)	.	-0.645
COc1cc(OC)cc(-c2nc(-c3ccc(Br)cc3)c(-c3ccc(Br)cc3)[nH]2)c1	.	31.2
CCOC(=O)c1c(CN2CCCCC2C)n(-c2ccccc2)c2cc(Br)c(O)cc12 (centres undefined)	.	0.125

In the list so far, 2 contain a nitro group on carbon:
SMILES	AID504770	CapD inh
CC1=C(C(=O)OCCOc2ccccc2)C(c2ccc(Cl)c([N+](=O)[O-])c2)C2=C(CC(C)(C)CC2=O)N1 (centres undefined)	.	-0.84
N#Cc1ccc(-c2cccc(C(F)(F)F)c2)n(Cc2ccc([N+](=O)[O-])cc2)c1=O	.	0.555

(more compounds)
SMILES	AID504770	CapD inh
CC(=O)N1C(O)CCN1c1ccccc1 (centres undefined)	-0.4	.
Cc1cccc(N(C)S(=O)(=O)c2c(C)noc2C)c1	-0.65	-0.52
CCCCCCC1CCC/C1=N\NC(N)=O (centres undefined)	-0.65	0.17
CCOC(=O)C1=C(O)/C(=C/c2ccccc2OCC(=O)O)SC1=Nc1ccc(C)cc1	.	0.295
O=C(O)CC1=C(c2cccs2)N2CCN=C2S1	0.6	.
O=C(NCC1CCCO1)c1ccc(S(=O)(=O)N2CCCCC2)cc1 (centres undefined)	-0.55	.
CC1(C)C(=O)Nc2ccccc2N1C(=O)Cn1nc(C(=O)O)c2ccccc2c1=O	-3.4	.
O=C1CC(C(=O)Nc2nncs2)C(c2ccccc2)O1 (centres undefined)	0.4	1.02
Cc1cc2ccccc2n1CC(=O)Nc1cccc(C(=O)NC2CC2)c1	-0.1	.
O=C(O)C1C2C=CC(C2)C1C(=O)Nc1ccc(-c2cnco2)cc1 (centres undefined)	.	0.13
COc1ccc(CNC(=O)c2ccc(N3CCCS3(=O)=O)cc2)cc1	-0.75	-0.255
Cc1ccc(C)c(NC(=O)CC(NCCc2ccccc2)C(=O)O)c1 (centres undefined)	0.45	-0.22
COc1cccc2cc(C(=O)N3CCN(C/C=C/c4ccccc4)CC3)c(=O)oc12	.	0.835
O=C(NCC1CCCCC1)c1ccsc1	.	-0.145
COc1ccc(-c2cc(C(=O)NC3CCCC3)no2)cc1	0.35	-0.005
Cc1nn(Cc2ccc(F)cc2)c2sc(C(=O)Nc3ccc(N4CCOCC4)cc3N3CCOCC3)cc12	-0.4	.
CC(=O)Nc1ccc(CN2CCN(C/C=C/c3ccccc3)CC2)cc1	-0.8	-0.325
N#C/C=C1\n2c(nc3ccccc32)OC12CCCCC2	0.05	.
COC(=O)C1=C(O)CCN(C)C1	-0.6	-0.905
CCCCN(C(=O)c1cn(-c2ccc(OC)cc2)c(=O)c2ccccc12)C1CCN(C(C)=O)CC1	-0.95	-0.045
Cc1ccc(C)n1-c1cccnc1	-0.1	2.16
CCOC(=O)c1c(C)[nH]c(C)c1C(=O)CN1C(=O)NC(CC(C)C)C1=O (centres undefined)	0	.
COc1ccccc1CNC(=O)C1CCCN1c1nn2c(=O)cc(C)nc2s1 (centres undefined)	-0.45	-0.025
CN(CC(=O)NC1CCCc2ccccc21)c1nnc(N2CCCC2=O)s1 (centres undefined)	0.3	-0.145
O=[N+]([O-])c1cc(N=Cc2nc(-c3ccccc3Br)oc2O)ccc1Cl	.	-0.195
C=CCN1CCC(c2nc(-c3cccnc3)no2)CC1	.	-0.32
Cc1ccc(-c2ccc(=O)[nH]n2)cc1S(=O)(=O)N1CCOCC1	-0.1	0.18
CCOC(=O)N1CCN(C(=O)c2ccc3c(=O)n(Cc4ccc(Cl)cc4)c(=S)[nH]c3c2)CC1	.	0.555
Cc1ccc(SCc2ccc(NC(=O)c3c(F)cccc3F)cc2)cc1	.	-0.16
COc1ccc2nc(NC(=O)COC(=O)C(CCSC)NC(=O)c3ccccc3)sc2c1 (centres undefined)	.	-0.465
Cc1ccc(S(=O)(=O)N2CCC(N(C)CCC(C)C)CC2)cc1	-0.25	3.14
Cn1cccc1/C=C/C(=O)Oc1ccc2ccc(=O)oc2c1	-1.4	.
Cc1ccc(CNC(=O)CCc2c(C)nc3c4cccnc4nn3c2C)cc1	-0.75	79.8
COCc1nnc(NC(=O)/C=C/c2cc(OC)c(OC)c(OC)c2)s1	0	0.215
CCC(=O)N1CCc2cc(S(=O)(=O)CCC(=O)NCc3cccs3)ccc21	0.05	1.15
CCOC(=O)c1cc2cccc(NS(=O)(=O)c3ccc(C)cc3)c2[nH]1	.	0.27
COC(=O)c1c(C)oc2ccc(N(C(=O)c3ccc(Cl)cc3)S(=O)(=O)c3ccc(Cl)cc3)cc12	.	-0.025
CC(Sc1nc2ccccc2c(=O)n1C)C(=O)NC(N)=O (centres undefined)	-0.1	.

One compound at a time, as listed above. Screens in order: AID504770, CapD inh
Cc1ccc(SCc2ccc(NC(=O)c3c(F)cccc3F)cc2)cc1 is entered as ., -0.16
Cc1ccc(S(=O)(=O)N2CCC(N(C)CCC(C)C)CC2)cc1 is entered as -0.25, 3.14

An unsorted share of the library; about 0.37% have a hit in one of these screens.
